CBX7 AlphaScr: blocks human CBX7 binding to H3K27me3 peptide; actives 1.1% (n = 66,000); normalised signal (fraction of DMSO) (concentration not given with the values); AlphaScreen His6-CBX7 / biotin-H3K27me3 peptide binding; hits give low values; in the data active = normalised signal below about 0.5;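 also: 100 nL library stock added to about 20 µL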
Target sequence (O95931 whole entry, looked up): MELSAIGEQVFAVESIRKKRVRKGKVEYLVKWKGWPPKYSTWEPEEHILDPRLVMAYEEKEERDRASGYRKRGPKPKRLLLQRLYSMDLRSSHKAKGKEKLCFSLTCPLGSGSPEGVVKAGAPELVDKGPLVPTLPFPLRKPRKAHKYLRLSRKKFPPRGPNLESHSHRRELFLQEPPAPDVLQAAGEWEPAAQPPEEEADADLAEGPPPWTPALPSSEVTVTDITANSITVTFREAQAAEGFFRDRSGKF
CBX7 AlphaScr z-score: recorded beside CBX7 AlphaScr, whose call it bears; z-score; measured here: z-score of CBX7 signal; some inactives read as strong as hits; reference of the scale not given here;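 same signal on another scale; lower means less binding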
An asterisk follows results filed as active. A portion of the library; rates above refer to the full screens.

SMILES	CBX7 AlphaScr	CBX7 AlphaScr z-score
Cc1ccc2c(c1)NC(=O)C(CC(=O)Nc1cc(F)ccc1F)O2 (configuration not stated)	1	0.57
Cc1cc(C)c(NC(=O)CSc2nccn2-c2cccc(Cl)c2)c(C)c1	0.88	-0.96
Cc1ccc(S(=O)(=O)Nc2c(-c3ccccc3)c3cc(C)ccc3[nH]c2=O)cc1	1	0.72
O=C(Nc1ccc(Cl)cn1)c1ccc(-c2ccc(Cl)cc2)o1	1.1	2.6
CCCCN(CCCC)C(=O)C1CCN(S(=O)(=O)c2c(C)noc2/C=C/c2cccs2)CC1	0.85	-0.31
CCOc1ccc2nc(SCC(=O)Nc3ccccc3C(F)(F)F)sc2c1	1.1	1.5
COc1ccc(C2=NN(Cc3c(F)cccc3Cl)C(=O)CC2)cc1	0.75	-3.4
O=C(NCc1cccnc1)c1cc(Nc2cccc(C(F)(F)F)c2)nc2ccccc12	1.3	8.6
COc1ccc(NC(=O)CSc2nc(-c3ccccc3)cn2-c2cc(Cl)ccc2OC)cc1	0.74	-8.6
Cc1noc(/C=C/c2cccs2)c1S(=O)(=O)N1CCC(C(=O)N2CC(C)CC(C)C2)CC1 (configuration not stated)	0.85	-0.32
Cc1ccccc1-c1nc(CS(=O)(=O)CC(=O)Nc2ccccc2Cl)c(C)o1	1.3	2.2
COc1ccc(OC)c(NC(=O)CSc2nccn2-c2cccc(C)c2C)c1	0.69	-0.31
COc1ccc(-c2cc(C(F)(F)F)n3nc(C(=O)Nc4cccc(Cl)c4)c(Cl)c3n2)cc1OC	1.1	0.97
COc1ccc(Nc2cc(C)nc(-c3ccccc3O)n2)cc1	1.2	4
CCCCCCCCc1ccc(-c2ccc(C(=O)NC(C)c3ccccc3)cc2)cc1 (configuration not stated)	1	1.3
Cc1ccccc1NC(=O)C1CCCN(c2nnc(-n3cccc3)s2)C1 (configuration not stated)	0.97	-0.87
O=C(CN1CCCC(O)C1)N1c2ccccc2C=Cc2ccccc21 (configuration not stated)	0.96	-0.93
Cc1cccc(CN2C(=O)CSc3ccc(C(=O)NC4CCCCC4C)cc32)c1 (configuration not stated)	1.1	2.2
CCc1ccc(CNC(=O)C2CCC(=O)N2C2CCCC2)cc1 (configuration not stated)	1	0.89
Cc1ccc(-c2n[nH]c(=O)c3ccccc23)cc1S(=O)(=O)N1CCOCC1	0.96	-0.97
Cc1ccc(S(=O)(=O)C2(C(=O)Nc3ccc(Cl)c(C(F)(F)F)c3)CC2)cc1	1.1	2.6
CN(C(=O)c1cc2c(s1)-c1ccccc1OC2)c1ccc(F)cc1	0.76	-3.4
O=S(=O)(c1ccc(F)cc1)c1nc(-c2cccs2)oc1SCc1ccccc1F	0.9	-0.17
O=c1[nH]c2ccc(S(=O)(=O)NCCc3ccccc3)cc2[nH]c1=O	1	0.043
Cc1oc(-c2cccc(Br)c2)nc1CN1CCC(C(=O)NCc2ccccc2Cl)CC1	1	-0.1

Next part.
SMILES	CBX7 AlphaScr	CBX7 AlphaScr z-score
COc1ccc(-c2noc(/C=C/c3ccccc3)n2)cc1	1.3	0.32
C=CCc1cc(C)ccc1OCC(O)Cn1c(CO)nc2ccccc21 (configuration not stated)	0.77	-0.48
CCOc1ccc2nc(N3CCC(C(=O)NCCN4CCCCCC4)CC3)sc2c1	1.2	0.28
C=CCN1C(=O)c2ccccc2Sc2ccc(C(=O)NCc3ccccc3)cc21	0.97	-0.033
COc1cccc(NC(=O)C(Cc2ccccc2)NS(=O)(=O)c2ccc3c(c2)CCC(=O)N3)c1 (configuration not stated)	0.91	-1.6
Cn1ccnc1SCC(=O)Nc1ccc(Cl)cn1	0.85	-2.1
O=C(C1CCCN(S(=O)(=O)c2cccs2)C1)N1CCC(Cc2ccccc2)CC1 (configuration not stated)	1	0.81
Cc1nn(Cc2ccccc2Cl)c(C)c1NC(=O)c1cc(-c2ccc(Cl)cc2)on1	0.98	-0.46
CCCCN(CCCNC(=O)CCN1C(=O)COc2ccccc21)c1ccccc1	0.84	-4.9
COc1ccc(-c2nc3ccccc3c(=O)n2-c2nc3ccccc3n2C)cc1	1	0.22
CCc1ccccc1N(C)C(=O)c1cn(-c2ccc(F)cc2F)c(=O)c2ccccc12	0.94	-1.5
COc1ccc(CNC(=O)Cn2nc(-c3ccccc3)ccc2=O)cc1	0.99	-0.18
Cc1ccc(Nc2nnc(-c3ccc(C)c(S(N)(=O)=O)c3)c3ccccc23)c(C)c1	0.91	-2.3
O=C(CCCN1C(=O)CSc2ncccc21)NCc1ccc(Cl)cc1	1	0.035
CCOc1ccc(-c2cc(CCCC(=O)Nc3ccc(C)c(C)c3)no2)cc1	0.93	-0.28
OC(COC1CCCCC1)Cn1c2ccccc2c2ccccc21 (configuration not stated)	1.1	3
O=C(O)c1ccc2c(c1)C(=O)N(c1ccc(-c3nc4ccccc4[nH]3)cc1)C2=O	1	0.58
CCCNC(=O)c1ccc2c(c1)N(Cc1ccccc1)C(=O)CS2=O (configuration not stated)	1.2	2.8
COc1ccc(NC(C)(C)c2nnnn2-c2c(C)cccc2C)cc1	0.93	-3.5
O=C(CN1CCOCC1)Nc1ccc(-c2nc3ccccc3[nH]2)cc1	1	0.074
COc1cccc(-n2nc(C(=O)Nc3ccc(C)c(F)c3)c3ccccc3c2=O)c1	1	0.13
COc1ccc(-c2nnc(-c3sc4ccccc4c3Cl)o2)cc1	1.1	1.9
O=C(Nc1c2c(nn1-c1ccc(Cl)cc1)CS(=O)(=O)C2)c1cccc(Br)c1	0.72	-1.9
Cc1c(C(=O)N2CCC(C)CC2)oc2ccc(S(=O)(=O)N3CCCCC3)cc12	0.93	-0.97
Cc1ccc(C)c2[nH]c(=O)c(CCNC(=O)COc3ccccc3)cc12	0.99	-0.23

The list goes on.
SMILES	CBX7 AlphaScr	CBX7 AlphaScr z-score
COc1cc(C(=O)Nc2ccccn2)cc(OC)c1OC	1.1	2.5
Cc1ccc(-n2c(C)nc3c(cnn3-c3ccc(F)cc3)c2=O)cc1	0.97	-0.33
COCCNC(=O)C1CCN(C(=O)c2cc3sccc3n2C)CC1	1	0.65
Cc1ccc(S(=O)(=O)N(CC(O)CN2CCCCC2)c2cccc3ccccc23)cc1 (configuration not stated)	0.83	-0.29
CCOC(=O)C1CCCN(c2c(N3CCN(c4ccc(OC)cc4)CC3)c(=O)c2=O)C1 (configuration not stated)	1.1	3.4
CCOC(=O)c1cnc2ccc(OCC)cc2c1Nc1ccccc1F	0.66	-0.38
COc1cc2c(C(=O)N3CCC(Cc4ccccc4)CC3)cn(CC(C)C)c(=O)c2cc1OC	0.82	-1.9
O=C(CSc1nc2ccccc2[nH]1)Nc1ccc(Br)cn1	0.85	-2.4
CCCCCn1c(=O)[nH]c2cc(C(=O)NCCc3ccc(OC)c(OC)c3)ccc2c1=O	1	0.81
CCCc1sc(N2CCCC(C(N)=O)C2)nc1-c1ccccc1 (configuration not stated)	0.66	-9.1
COc1cc(C2C(N3C(=O)c4ccccc4C3=O)C(=O)N2c2cccc(C)c2)cc(OC)c1OC (configuration not stated)	0.79	-5.7
COc1ccc(-c2cc3nc(C)c(CCC(=O)NCc4ccncc4)c(C)n3n2)c(OC)c1	1.1	0.58
CC1(C)CC(=O)c2cc(C(=O)Nc3cccc(Cl)c3)c(=O)n(-c3ccccc3)c2C1	1	0.96
COc1ccc(CC(=O)Nc2ccc3nc(N4CCCCC4)cc(C)c3c2)cc1	1.1	2.2
O=C(CSc1n[nH]c(-c2ccncc2)n1)c1ccc(Br)cc1	0.23*	-1.6*
Cc1ccc(Cl)cc1N1CCN(C(=O)c2cnn(-c3ccccc3)c2-n2cccc2)CC1	1	1.5
O=C(Nc1cnc2ccccc2c1)C1c2ccccc2C(=O)N2CCc3ccccc3C12 (configuration not stated)	0.97	-0.46
Cc1ccc2c(c1C)NC(=O)CC2c1ccc(F)c(F)c1 (configuration not stated)	1.2	1.9
CCOC(=O)c1[nH]cnc1C(=O)Nc1ccc(Br)cc1	0.98	-0.43
O=C(Nc1ccc(-c2noc(-c3ccccc3Br)n2)cc1)c1ccc2c(c1)OCO2	1.2	2.5
O=C(CCc1nc(-c2ccccc2F)no1)Nc1nc2ccccc2s1	0.92	-1.2
O=C(CCCN1C(=O)c2cccnc2C1=O)Nc1cccc(C(F)(F)F)c1	0.81	-3.1
CCOC(=O)CNS(=O)(=O)c1c(C)noc1C	0.99	-0.29
CCC1=Nc2cc(C(=O)NCCCN(CC)Cc3ccccc3)ccc2Sc2ccc(C)cc21	0.88	-6.2
CCOC(=O)c1c(-c2ccccc2)csc1NC(=O)c1cc(C)no1	1.1	1.5

Given bar-delimited: entries from further up
compound | CBX7 AlphaScr | CBX7 AlphaScr z-score
CCOC(=O)CNS(=O)(=O)c1c(C)noc1C | 0.99 | -0.29
Cc1ccc2c(c1C)NC(=O)CC2c1ccc(F)c(F)c1 (configuration not stated) | 1.2 | 1.9
COc1ccc(-c2cc3nc(C)c(CCC(=O)NCc4ccncc4)c(C)n3n2)c(OC)c1 | 1.1 | 0.58

A different layout for four compounds above.
Below each SMILES – CBX7 AlphaScr	CBX7 AlphaScr z-score
Cc1ccc(Cl)cc1N1CCN(C(=O)c2cnn(-c3ccccc3)c2-n2cccc2)CC1
  1	1.5
CCCc1sc(N2CCCC(C(N)=O)C2)nc1-c1ccccc1 (configuration not stated)
  0.66	-9.1
O=C(Nc1cnc2ccccc2c1)C1c2ccccc2C(=O)N2CCc3ccccc3C12 (configuration not stated)
  0.97	-0.46
COCCNC(=O)C1CCN(C(=O)c2cc3sccc3n2C)CC1
  1	0.65

(list continues)
SMILES	CBX7 AlphaScr	CBX7 AlphaScr z-score
COCCNC(=O)CSCc1nc(-c2ccc(OC)cc2)oc1C	0.94	-1.4
COc1ccccc1N1C(=O)C2C3C=CC(C3=C(C)C)C2C1=O (configuration not stated)	0.91	-1.1
Cc1ccc(S(=O)(=O)C2(C(=O)NCc3cccs3)CC2)cc1	1.1	1.5
Cc1ccccc1-n1c(=O)cc(N2CCN(c3ccccc3Cl)CC2)[nH]c1=O	1.1	1.3
Cc1noc(/C=C/c2cccs2)c1S(=O)(=O)N1CCCC(C(=O)NCc2cccnc2)C1 (configuration not stated)	0.96	-0.69
CCCC(=O)NC(c1ccccc1)c1cc(Cl)c2cccnc2c1O (configuration not stated)	0.63	-1.3
CNC(=O)CN1C(=O)CSc2ccc(S(=O)(=O)N3CCC(C)CC3)cc21	0.99	-0.38
CCc1cccc(NC(=O)CSc2nc3c(c(=O)[nH]2)CCC3)c1	0.92	-0.98
COc1nnc(-c2ccc(N3CCOCC3)c(NS(=O)(=O)c3ccc(C)cc3)c2)c2ccccc12	1.2	4.8
CCCOc1ccc(N2C(=O)CC(N3CCN(CC)CC3)C2=O)cc1 (configuration not stated)	0.97	-0.67
CCOC(=O)c1cc(-c2ccccc2)n(CCC(=O)Nc2cc(C)cc(C)c2)c1C	0.9	-1.8
Cc1cccc(NC(=O)c2cc3c(n(-c4ccccc4)c2=O)CC(C)(C)CC3=O)c1	1	-0.1
CC1CCCN(S(=O)(=O)c2ccc3[nH]c(=O)cc(C(=O)NCc4cccnc4)c3c2)C1 (configuration not stated)	1	1.2
O=C(Nc1cccc(-c2nc3ccccc3s2)c1)c1cccnc1Cl	0.91	-1.5
Cc1ccc(Cl)cc1N1CCN(C(=O)c2cc3c(s2)-c2ccccc2OC3)CC1	1.3	7.9
CCOc1ccc2c(=O)c(Oc3ccccc3Br)coc2c1	1	0.37
COCCCNC(=O)CN1C(=O)COc2ccc(C)cc21	1.1	0.38
CCCCOc1ccccc1NC(=O)Cn1nnc(-c2ccccc2F)n1	0.99	-0.18
CCN(CCCNS(=O)(=O)c1ccc2c(c1)CCN2C(C)=O)c1ccccc1	0.86	-0.55
COc1ccc(-c2noc(N(C)CC(=O)Nc3cccc(OC)c3)n2)cc1	1	1.1
Cc1cccc(NC(=O)C(=O)NCCc2c[nH]c3ccccc23)c1C	0.91	-1
CCc1cccc(C)c1NC(=O)Cc1nn(C)c(=O)c2ccccc12	1.1	2.8
Cc1cc(Nc2ccc(Cl)cc2)n2nnnc2n1	0.91	-2
NC(=O)C1CCN(c2nc(-c3ccc(Cl)cc3)cs2)CC1	1	1.2
COc1ccc(N2CCC(CNS(=O)(=O)c3cccc(C(F)(F)F)c3)C2)cc1 (configuration not stated)	0.84	-6.2

Continued.
SMILES	CBX7 AlphaScr	CBX7 AlphaScr z-score
COc1ccc(NC2c3ccccc3C(=O)N2c2cccnc2)cc1 (configuration not stated)	1.1	2.2
COc1ccc(-c2cc(-c3c(O)ccc4ccccc34)[nH]n2)cc1OC	0.71	-8.2
O=C1C2C3C=CC(C4CC34)C2C(=O)N1c1ccncc1 (configuration not stated)	1	0.73
CCN(CC)S(=O)(=O)c1ccc(C(=O)Nc2sc3c(c2C(=O)OC)CCN(C(C)C)C3)cc1	1.1	3.9
Cc1nc2c(C(=O)NCCCN3CCCC3)cnn2c(C)c1Cc1c(F)cccc1Cl	0.95	-1.3
COc1ccc(Nc2nc(-c3ccccc3F)nc3ccccc23)cc1	0.96	-0.39
O=C(c1ccc2nc(N3CCOCC3)sc2c1)N1CCN(Cc2ccccc2)CC1	1.1	0.16

Molecules shown so far that contain a furan ring, fused or not, in the order listed:
SMILES	CBX7 AlphaScr	CBX7 AlphaScr z-score
O=C(Nc1ccc(Cl)cn1)c1ccc(-c2ccc(Cl)cc2)o1	1.1	2.6
Cc1c(C(=O)N2CCC(C)CC2)oc2ccc(S(=O)(=O)N3CCCCC3)cc12	0.93	-0.97
